MenB inh: blocks the Mycobacterium tuberculosis MenB enzyme; inhibition, %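 (about 12 µg/mL by stock and volumes)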; P9WNP5; 0.43% of 100,000 active; AID 540299; MenB enzyme assay, absorbance read-out; some hits fall short of the stated cut;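 active = mean of two replicates above 30%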;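 note: 0% = no compound and 100% = wells with inactive enzyme; the first replicate is given; strong numbers were not always called active; inactives centre near -10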
Target sequence (P9WNP5 whole entry, looked up): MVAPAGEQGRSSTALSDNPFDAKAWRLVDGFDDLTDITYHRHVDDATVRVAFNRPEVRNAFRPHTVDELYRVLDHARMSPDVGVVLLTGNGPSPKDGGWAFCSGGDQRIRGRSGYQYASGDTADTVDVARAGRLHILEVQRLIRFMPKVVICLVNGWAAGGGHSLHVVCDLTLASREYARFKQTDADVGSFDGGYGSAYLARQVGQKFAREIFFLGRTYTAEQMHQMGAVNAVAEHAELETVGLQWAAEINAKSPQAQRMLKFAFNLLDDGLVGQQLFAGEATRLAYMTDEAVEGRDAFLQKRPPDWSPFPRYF
PV pol inh: inhibitors of poliovirus RNA polymerase binding and polymerization | P03300 | poliovirus polymerase elongation, fluorescence polarization; active compounds read low | % elongation, % (compound at 16.7 µg/mL) | 0.66% of 150,000 active | AID 588519; in the data active = % elongation below about 90%; note: some results filed as inactive read as strong as hits
Target sequence (P03300 1749-2209 limits assumed): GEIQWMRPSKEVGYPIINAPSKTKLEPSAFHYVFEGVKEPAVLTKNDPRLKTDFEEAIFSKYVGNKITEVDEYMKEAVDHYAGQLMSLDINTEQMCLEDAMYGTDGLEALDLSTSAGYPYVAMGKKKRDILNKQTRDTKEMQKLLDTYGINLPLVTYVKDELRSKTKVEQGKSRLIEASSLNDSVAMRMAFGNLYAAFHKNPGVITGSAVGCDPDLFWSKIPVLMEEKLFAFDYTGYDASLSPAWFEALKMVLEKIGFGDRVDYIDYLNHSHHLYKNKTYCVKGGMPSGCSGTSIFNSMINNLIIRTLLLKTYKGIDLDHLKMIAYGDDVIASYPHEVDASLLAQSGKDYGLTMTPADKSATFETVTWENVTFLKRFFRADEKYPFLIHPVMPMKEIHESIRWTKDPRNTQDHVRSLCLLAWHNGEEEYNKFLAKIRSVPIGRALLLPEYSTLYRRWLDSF
MbtI inh: blocks the Mycobacterium tuberculosis siderophore enzyme MbtI | 0.89% of 100,000 active | inhibition, %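 (about 17 µg/mL by stock and volumes)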 | purified MbtI enzyme, fluorescence intensity read-out | AID 493033 | P9WFX0;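 active = above 50% in both replicates, above 80% if mildly self-fluorescent; inactive = the rest, strongly fluorescent compounds included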;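 note: 0% = mean of negative and 100% = mean of positive controls; one replicate is shown; some compounds called inactive have numbers as strong as hits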
PV pol inh intensity: second read-out of PV pol inh, no call of its own (marks repeat the call); % elongation; measured here: total intensity read-out; formula for this scale not given here;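 total fluorescence in place of polarization; lower means less elongation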
Numbers without * were called inactive; i = inactive; . = no result given.

SMILES	MenB inh	PV pol inh	PV pol inh intensity	MbtI inh
O=C(C1CCN(c2ncc(C(F)(F)F)cc2Cl)CC1)N1CCCc2ccccc21	-12	99	99	15
CC(Oc1cccc(Cl)c1)C(=O)N1CCCCC1 (configuration not stated)	-33	106	103	-8
NS(=O)(=O)c1ccc(NNC(=O)C2CCN(C(=O)OCc3ccccc3)CC2)cc1	-12	102	104	4
COc1ccc(C(=O)COC(=O)c2ccccc2SCC(=O)N(C)C)cc1F	-22	106	109	-3
C=CCN1C(=O)C2C3C=CC(C3)C2C1=O (configuration not stated)	-2	101	105	-5
Cc1ccc(CSc2ncnc3sc(C)c(C)c23)cc1	-14	99	96	.
O=C(O)c1ccc(OC2CSC2)cc1	-22	103	103	-12
C=CCNCc1cccs1	-20	105	101	-7
Cc1ccc2c(c1)N(CC(=O)O)C(=O)CO2	5	99	103	-18
N#Cc1c(N)c(C#N)c(=S)n(CC2CCCO2)c1N (configuration not stated)	-6	104	106	-1
CCn1c(SC(C)c2nc3ccccc3s2)nnc1-c1cccc(S(=O)(=O)N2CCCC2)c1 (configuration not stated)	-13	107	117	15
Nc1ncnc2c1ncn2[C@@H]1O[C@H](CO)[C@@H](O)[C@H]1O	18	103	102	-11
COc1ccc(CNC(=O)Cc2c(C(=O)O)[nH]c3ccc(Cl)cc23)c(OC)c1	-1	100	106	9
CCOC(=O)Nc1ccc2c(COC(=O)c3nccnc3N)cc(=O)oc2c1	6	104	102	104
Cc1[nH]n(-c2ccccc2)c(=O)c1C(=O)Nc1ccc(Cl)cc1	-2	105	104	64
CCN(CC)Cc1c[nH]c2ccccc12	38	101	103	-7

Whole records, looked up by structure:
Results for COc1ccc(CNC(=O)Cc2c(C(=O)O)[nH]c3ccc(Cl)cc23)c(OC)c1 → MenB inh = -1; PV pol inh = 100; PV pol inh intensity = 106; MbtI inh = 9
Results for N#Cc1c(N)c(C#N)c(=S)n(CC2CCCO2)c1N (configuration not stated) → MenB inh = -6; PV pol inh = 104; PV pol inh intensity = 106; MbtI inh = -1
Results for CCOC(=O)Nc1ccc2c(COC(=O)c3nccnc3N)cc(=O)oc2c1 → MenB inh = 6; PV pol inh = 104; PV pol inh intensity = 102; MbtI inh = 104

(cont.)
SMILES	MenB inh	PV pol inh	PV pol inh intensity	MbtI inh
Cc1ccccc1NC(=O)CN1CCC(n2nnc3ccccc32)CC1	17	100	101	0
Nc1ccc(Oc2ccc3c(c2)OCO3)cc1	-60	104	101	-2
Cc1ccc(C)c(OC(=O)CCN2C(=O)c3ccccc3C2=O)c1	1	102	106	-2
CCn1c(=O)c(=O)[nH]c2cc(C(=O)NC3CC3)ccc21	-22	106	108	-28
CC(=O)NC1C(=O)N=C(SCC(=O)Nc2c(C)cccc2C)NC1=O (configuration not stated)	-7	101	102	5
CCc1c(C)c2cc3c(C)coc3cc2oc1=O	7	100	96	-1
COc1ccc(NC(=O)CN2CCC(n3c(C)nc4cc(F)ccc43)CC2)c(OC)c1	-10	101	105	1
CCOC(=O)COn1c(C)c(C(=O)OCC)c2c3nonc3ccc21	1	101	106	88
O=C(c1ccc(-c2nc3ccccc3s2)o1)N1CCCCCC1	-3	102	102	6
CCCn1nc(NS(C)(=O)=O)c2cc3ccccc3nc21	-115	101	105	50
COc1ccc(-c2nc(SC)c(S(=O)(=O)c3ccc(C)cc3)[nH]2)cc1	-16	100	101	16
O=C(OCc1nc2ccccc2s1)c1ccc(F)cc1F	.	102	108	-13
CS(=O)(=O)c1ccc(C(=O)OCc2cc(=O)n3ccsc3n2)cc1	-33	99	88	-2
NCCCN(Cc1ccco1)C1CCCC1	1	105	104	-19
NNc1c(Cl)c(Cl)nc(C(=O)O)c1Cl	-23	104	106	-9
O=C1CCCc2c1n(CCN(Cc1ccccc1)Cc1ccccc1)c1ccc(Cl)cc21	7	102	98	9

Entries from the list above that contain a furan ring, fused or not, in the order listed:
SMILES	MenB inh	PV pol inh	PV pol inh intensity	MbtI inh
CCc1c(C)c2cc3c(C)coc3cc2oc1=O	7	100	96	-1
O=C(c1ccc(-c2nc3ccccc3s2)o1)N1CCCCCC1	-3	102	102	6
NCCCN(Cc1ccco1)C1CCCC1	1	105	104	-19

Sorted by formula weight (smallest number first): some entries from above.
SMILES	MenB inh	PV pol inh	PV pol inh intensity	MbtI inh
NCCCN(Cc1ccco1)C1CCCC1	1	105	104	-19
CC(Oc1cccc(Cl)c1)C(=O)N1CCCCC1 (configuration not stated)	-33	106	103	-8
O=C(OCc1nc2ccccc2s1)c1ccc(F)cc1F	.	102	108	-13

Further entries:
SMILES	MenB inh	PV pol inh	PV pol inh intensity	MbtI inh
Cc1nn(CC(C)C)c(Cl)c1C(=O)N1CCCC1c1nc2ccccc2s1 (configuration not stated)	-6	104	102	2
Cc1c(C(=O)N2CCC(C)CC2)sc2nc(-c3ccc(F)cc3)cn12	-17	102	106	-11
CCOc1ccc2cc(C(=O)c3ccc(OC(F)F)cc3)oc2c1	10	106	111	-11
Cc1nn(C)cc1CNC(=O)c1ccccc1Br	-17	99	102	-7
Cc1ccc(S(=O)(=O)CC(=O)N(C)C)cc1	-21	101	101	4
O=C(CSc1nncs1)NC(=O)C1CCCCC1	2	99	107	-4
O=C(O)/C=C/S(=O)(=O)c1ccccc1	-18	104	103	0
COc1ccc(/C=N/NC(=S)Nc2c(C)n(C)n(-c3ccccc3)c2=O)cc1OC	-12	100	99	27
NC(=O)CSc1nnc(-c2ccco2)n1N	-4	101	104	2
O=S(=O)(Cc1ccccc1)N/N=C/c1ccc2c(c1)OCO2	-1	102	104	6
Cc1nn(-c2ccc(Cl)cc2)c2sc(C(=O)NC(C)(C)CO)cc12	-12	98	109	-5
O=C(Nc1ccc(I)cn1)c1ccc(-c2ccc(Cl)cc2)o1	-12	102	105	4
C=CCn1c(COc2ccccc2F)nnc1SC(C)C(=O)NC(N)=O (configuration not stated)	0	101	104	-24
COC(=O)NC(=Nc1c(C)cc(C)cc1C)C(F)(F)F	.	100	96	-5
c1ccc2c(c1)NC(c1ccncc1)n1c-2nc2ccccc21 (configuration not stated)	-8	105	107	i
CCc1nc(NC(=O)NS(=O)(=O)c2ccccc2C(=O)OC)nc(OC)n1	-27	103	99	-5
CN1CCN(c2ccccc2NC(=O)Cn2cnc3onc(-c4ccc(F)cc4)c3c2=O)CC1	5	101	103	-14
Cc1cc2[nH]c(=O)c(=O)[nH]c2cc1S(=O)(=O)NCc1cccs1	1	100	103	94
Cc1ccc(C(=O)OCCOc2ccccc2F)cc1	.	100	100	-7
CCc1nnc2c3ccccc3nc(Nc3cccc(C(=O)O)c3)n12	6	101	101	-22
O=C(NCCO)c1c(O)nc2ccccn2c1=O	2	99	101	118
O=C1CN(c2ccccc2)C(=O)C1C(=O)N1CCOCC1 (configuration not stated)	8	101	102	-23
CCOC(=O)/C(C#N)=C1/NC(=O)Nc2ccccc21	4	103	103	4
COC(=O)CSc1nnc(C2CCCCC2)o1	-4	105	104	10
CC(C)S(=O)(=O)c1csc(NC(=O)Nc2cc(C(F)(F)F)cc(C(F)(F)F)c2)c1Cl	3	103	109	-7
FC(F)(F)c1nc2ccccc2nc1-c1cccc(Cl)c1	-8	105	95	.
CC1CN(c2nc(-c3ccccc3)nc3ccccc23)CC(C)O1 (configuration not stated)	5	101	102	4
O=c1c2cc3ccccc3oc-2nn1-c1ccc(Cl)cc1	2	104	103	6
CCOC(=O)CCc1c(C)nn(-c2ccc3nnc(C)n3n2)c1C	3	102	102	-5
O=C1/C(=C/c2cccs2)SC(=S)N1CCCC(=O)N1c2ccccc2Sc2ccccc21	-3	102	106	-12
CC(C(=O)N(C)c1ccccc1)N1CCN(c2ccc(C(F)(F)F)cn2)CC1 (configuration not stated)	-6	103	107	-10
Cc1cccc(NC(=O)c2cccc(Br)c2)n1	-15	104	111	.
O=C(CSc1ncccn1)N(Cc1ccccc1)C1CCS(=O)(=O)C1 (configuration not stated)	-10	108	110	7
Cc1cc(C)c(OCC(=O)N/N=C/c2ccc(O)cc2O)c(Br)c1	-63	102	104	16
CC(C)(C(=O)Nc1ccc2c(c1)OCO2)C(=O)Nc1ccc2c(c1)OCO2	41*	103	100	4
O=C(CN1CCCCC1)N/N=C/c1ccc(Cl)cc1	7	101	101	-15
CCOC(=O)N1CCC(Nc2nc3ccccc3nc2NS(=O)(=O)c2ccc(Cl)cc2)CC1	-1	100	106	15
O=c1cc(NCCc2ccccc2)c2ccccc2o1	33*	103	104	22
CCCN1C(=O)/C(=N\OCC(=O)Nc2ccc3c(c2)OCO3)c2ccccc21	-26	102	109	9
CCOC(=O)c1ccc(Nc2nc3nonc3nc2NCc2ccco2)cc1	-26	101	102	1
CCc1ccc(NC(=O)c2ccc3c(c2)N(CC)CCS3)cc1	-18	101	99	-6
CC(=O)N(c1ccccc1)c1nc(CSc2nnc(-c3ccc(Cl)cc3)o2)cs1	-19	98	105	7
CC(NC(=O)c1ccc(F)cc1Cl)C(c1cccs1)N1CCCC1 (configuration not stated)	.	104	107	-2
CN(C)C=NC(=O)c1ccc(-c2cccs2)s1	-16	102	109	96
Cn1c2c(c(=O)n(C)c1=O)C(O)(C(F)(F)F)C(=O)N2 (configuration not stated)	5	99	102	-12
CC(NC(=O)C1CCC(=O)N1Cc1ccccc1Cl)c1ccc2c(c1)OCCO2 (configuration not stated)	3	101	103	-7
CCCN1C(=O)/C(=C/c2ccc(C(C)C)cc2)SC1=S	.	101	103	-10
C/C(=N\O)C(=O)NCc1cccnc1	-16	103	101	-9
COc1ccccc1C1CCN(C(=O)c2ccco2)CC1	-3	105	113	-8
COc1cccc(=O)c2c(C)n(C)c(C)c12	-52	108	117	.
Cc1nnc(SCC(=O)c2ccc3c(c2)NC(=O)CO3)n1C1CC1	-2	95	102	-4
CC(Sc1nnc(-c2c[nH]c3ccccc23)o1)C(=O)Nc1ccccc1 (configuration not stated)	-28	101	107	-1
CCn1c(C)[n+](CC)c2ccccc21	4	104	107	-3
CC1(C)Cc2c(c(N3CCOCC3)nc3sc4c(NCCCO)nnnc4c23)CO1	17	100	101	-3
COCCNC(=O)c1ccc(S(=O)(=O)N2CCC(C)CC2)cc1	-27	106	111	-12
O=C1CCCC(O)=C1N=Nc1ccccc1C(=O)O	-463	97	99	18

Going on with the list:
SMILES	MenB inh	PV pol inh	PV pol inh intensity	MbtI inh
CCOC(=O)N=S(N)(=O)c1ccc(Cl)cc1 (configuration not stated)	.	105	110	-14
COc1ccc(C2=N/C(=C/c3c(C)nn(-c4ccccc4)c3N3CCCCC3)C(=O)O2)cc1OC	-28	108	108	.
N#Cc1c(-c2ccccc2)nc(SCC(=O)NC2CCCCC2)[nH]c1=O	-3	100	101	-26
N#Cc1cc2c(nc1SCc1ccccc1)CCCC2=O	-47	99	104	-6
CC1(C)CCCC2=C1CC1C(=O)NNC(=O)C1C2 (configuration not stated)	-18	106	108	-3
O=C(c1ccco1)N1C(=O)c2cccc3cccc1c23	-11	100	102	-3
CC1(C)C(=O)Nc2ccccc2N1C(=O)CSc1ncnc2ccccc12	-18	108	116	-6
O=C1CCC(C(=O)OCc2cccc(C(F)(F)F)c2)=NN1	-22	104	108	-25
